Beta2AR agonist – agonists of human beta-2 adrenergic receptor inducing internalization; actives 0.43% (n = 340,000); AID 504454; P07550; response, % (test concentration not listed); Am2.2-beta2AR cells, FAP receptor internalization, flow cytometry; reference of the scale not given here;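 active = response above a set limit, near 3 SD of response in nonfluorescent compounds, cut at about 42% in these data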;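 also: stock transfer was 100 nL into about 11 µL; a reference agonist was the positive control; negative values mostly stem from fluorescent compounds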
Target sequence (P07550 whole entry, looked up): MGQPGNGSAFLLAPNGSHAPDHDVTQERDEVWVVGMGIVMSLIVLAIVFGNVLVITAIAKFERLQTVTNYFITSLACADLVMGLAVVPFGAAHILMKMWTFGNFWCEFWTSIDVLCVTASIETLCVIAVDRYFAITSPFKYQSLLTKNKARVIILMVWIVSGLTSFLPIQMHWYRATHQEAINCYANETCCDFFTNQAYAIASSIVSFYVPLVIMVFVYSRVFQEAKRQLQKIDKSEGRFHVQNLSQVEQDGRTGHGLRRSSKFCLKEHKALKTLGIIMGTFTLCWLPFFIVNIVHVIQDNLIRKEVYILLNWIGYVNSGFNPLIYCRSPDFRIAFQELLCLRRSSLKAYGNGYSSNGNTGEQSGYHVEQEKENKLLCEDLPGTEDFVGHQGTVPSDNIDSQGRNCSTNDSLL
rRNA inh HTS – inhibits bacterial ribosomal RNA function over humanized ribosomes | E. coli WT GFP vs humanized-ribosome RFP mutants, fluorescence, 24 h; hits give low values; DMSO median 0, no signal -100 | GFP signal change (wild-type ribosome), % (no concentration beside the values) | actives 1.6% (n = 350,000);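 active = significant combined selectivity score with lowered wild-type GFP, culture density cut under 30%, mutant RFP and density less affected; inactive = any of these conditions unmet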; also: one replicate is shown; some compounds called inactive have numbers as strong as hits
rRNA inh HTS OD600 – recorded beside rRNA inh HTS, whose call it bears; OD600 change, %; measured here: OD600 growth;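 optical density of the mix in the first replicate; 0 = DMSO median and -100 = no signal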
rRNA inh HTS RFP – further read-out of rRNA inh HTS, marked with its call; RFP signal change, %; measured here: RFP humanized mutant strains;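 first replicate; 0 = DMSO median and -100 = no signal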
* hit, by the source's call; & = joins results of further samples. The list is partial; rates above refer to the full screens.

SMILES	Beta2AR agonist	rRNA inh HTS	rRNA inh HTS OD600	rRNA inh HTS RFP
CC(OC(=O)c1ccc2c(c1)OCO2)C(=O)NC1CCCCC1C (stereo unspecified)	-1	2	1	-1.5
CC(Cc1ccccc1)=NNc1ccc([N+](=O)[O-])cc1[N+](=O)[O-]	-8	-10	-5	-5.5
COc1ccc2sc(-c3ccc(S(C)(=O)=O)cc3)c(C(=O)NCCCN3CCCC3=O)c2c1	7	-14	-4	3.8
CC(OC(=O)c1ccc(C#N)cc1)C(=O)Nc1ccc(Cl)cn1 (stereo unspecified)	-8	6	1	-0.3
O=C1C2C3C=CC(O3)C2C(=O)N1N=Cc1cccc2ccccc12 (stereo unspecified)	3	10	6	1.4
CN(C(=O)c1cccc(NC(=O)Cc2cccc(NC(=O)C3CCCN(C(=O)C4CC4)C3)c2)c1)C1CC1 (stereo unspecified)	-11	-1	16	-2.3
CC1CCc2[nH]c3ccc(C(=O)N(C)CC(=O)Nc4ccccc4Cl)cc3c2C1 (stereo unspecified)	-7	-11	-16	2.6
CCN(c1ccccc1)S(=O)(=O)c1cccc(C(=O)NCCOc2ccccc2OC)c1	-2	-19	-36	-7.4
Nc1nnc(SCC(=O)Nc2cccc(Cl)c2)s1	1	-1	1	-1.5
CCCN=C1N(CC)C[C@@H]2[C@@H]3C(=O)N(C)C(=O)[C@@H]3[C@](C)(C(=O)OC)N12	-5	9	18	-3.6
CCOC(=O)C1(Cc2ccccc2C#N)CCCCC1=O (stereo unspecified)	-3	-4	-4	0.1
CC(C)N(C(=O)[C@H]1C[C@H](CC(=O)NCCc2ccccn2)C(=O)N2CCc3c([nH]c4cc(-c5ccco5)ccc34)[C@]12C)C(C)C	-5	6	8	4.5
COc1cc(C(C)=O)ccc1OCc1cn(CC(=O)c2ccc(O)cc2)nn1	2	1	-20	4.3
COc1ccc2c(Cl)c(C(=O)OCC(=O)c3ccc4c(c3)NC(=O)CO4)sc2c1Cl	7	8	0	-3.7
CN(CCc1ccccc1)C(=O)c1ccc(NC(=O)Cc2ccc(NC(=O)C3CCCN(C(=O)C4CCCCC4)C3)cc2)cc1 (stereo unspecified)	4	7	-1	3.7
CC(Sc1ncccn1)C(=O)N1CCc2ccccc21 (stereo unspecified)	4	16	15	0.7
COC(=O)C1=NNC(C(=O)OC)C1c1ccccc1 (stereo unspecified)	-3	10	9	0.4
COc1cc(OC)cc(C(=O)NC(C(=O)NNC(=O)CN(C)S(=O)(=O)c2ccc(C)cc2)C(C)C)c1 (stereo unspecified)	-5	4	5	2.5
COc1ccc(C2CC(c3ccc(C(F)(F)F)cc3)=NN2c2ccc(S(N)(=O)=O)cc2)cc1 (stereo unspecified)	15	13	7	-2.4
COc1ccc(CNCCS(=O)(=O)NC2CCCC2)cc1	5	4	3	-4.3
Cc1ccc(C)c(N2CCN(C(=O)CCc3nc(-c4ccccc4F)no3)CC2)c1	11	-32	-38	-3.6
O=S(=O)(O)c1ccc2c(c1)C(C(Cl)(Cl)Cl)OC(C(Cl)(Cl)Cl)O2 (stereo unspecified)	0	-21	-38	-2.5
COc1ccc(C)cc1NS(=O)(=O)c1ccccc1	1	7	5	3.3
O=C1N=c2ccccc2=C1c1sc(Nc2ccc(O)cc2)nc1O	3	-3	24	1.6
NC(N)=NN=C(c1ccc(F)cc1)c1ccc(C(F)(F)F)cc1	13	-60	-81	-19

(further entries)
SMILES	Beta2AR agonist	rRNA inh HTS	rRNA inh HTS OD600	rRNA inh HTS RFP
O=C1NC(c2ccccc2)Cc2ccncc21 (stereo unspecified)	-2	7	8	-1.5
COc1ccc2[nH]c3c(c2c1)CCN1C(=O)C(CC(=O)NCc2ccco2)C[C@H](C(=O)N2CCOCC2)[C@@]31CCC1CCCC1 (stereo partly specified)	-1	19	14	0.4
CCN(Cc1ccccc1)c1ccccc1	11	4	4	0.9
O=C(c1ccc2c(=O)n3c(nc2c1)CCC3)N1CCN(S(=O)(=O)c2ccccc2Br)CC1	-9	-5	2	-1.7
O=C1C=Cc2cccc3ccc(O)c1c23	18	-9	-66	2.3
O=C1c2ccccc2S(=O)(=O)N1CCCN1C(=O)c2ccccc2S1(=O)=O	-4	14	6	0.7
O=C(COC(=O)/C=C/c1ccc([N+](=O)[O-])cc1)Nc1ccc2[nH]c(=O)[nH]c2c1	-6	9	4	-2.3
O=C(Nc1ccc([N+](=O)[O-])cc1)NN1CCCCCC1	-3	-1.6*	3.1*	4.2*
CC(=NNc1ccc([N+](=O)[O-])cn1)c1ccccc1	20	15	-4	5.6
CC(C)[C@@H](CO)N(C)S(=O)(=O)c1ccccc1Br	1	3	-2	1.0
NS(=O)(=O)c1ccc(NC(=O)c2cccc3cc4ccccc4nc23)cc1	11	-3	-21	1.8
NC(=O)C1=C(N)c2ccccc2C1c1ccccc1 (stereo unspecified)	1	-1	2	1.6
COc1ccc([C@@H]2CC=C(C(=O)O)[C@H](c3ccc(C(C)(C)C)cc3)N2S(=O)(=O)c2ccc(C)cc2)cc1OC	5	-20*	-6.2*	-0.6*
CCOC(=O)C1=C(C)c2ccccc2N(S(=O)(=O)C(F)(F)F)C1C(=O)OCC (stereo unspecified)	1	6	20	0.3
CC(=O)c1ccc(OCCCC(=O)NCc2nnc3ccccn23)cc1	2	3	8	-1.3
CCCCN1CC(COCc2ccccc2)Oc2ccccc2S1(=O)=O (stereo unspecified)	1	-4	-12	-3.0
CCOc1ccc(NC(=O)COc2ccc(N3CC(C(N)=O)CC3=O)cc2)cc1 (stereo unspecified)	1	-1	2	1.8
COc1ccc(C(CNC(=O)CCNC(=O)c2ccccc2Cl)N2CCCC2)cc1 (stereo unspecified)	3	11	14	4.4
CN(C)CCCNC(=O)C[C@H]1C[C@H](C(=O)N2CCOCC2)[C@@]2(CCC3CCCC3)c3[nH]c4cc(CCC(=O)N(C)C)ccc4c3CCN2C1=O	-7	17	10	2.2
CCOc1ccccc1NC1=C(OC)C(=O)C(Nc2ccccc2OCC)=C(OC)C1=O	3	1	4	4.8
CC(C)(C)c1ccc2c(c1)C(c1ccc3c(c1)OCO3)CC(=O)O2 (stereo unspecified)	3	-25*	-8.5*	-3.4*
CC1CCC(=NO)C(=NO)C1 (stereo unspecified)	-2	6	7	1.6
CN(C(=O)c1cccc(NC(=O)Cc2cccc(NC(=O)C3CCN(C(=O)C4CCC4)CC3)c2)c1)C1CC1	-5	0	3	2.0
C=CCc1ccccc1Oc1cc(OC)nc(N)n1	-3	-4	-1	-4.3
COc1ccccc1N1CCN(C(=O)c2cccc(S(=O)(=O)N3c4ccccc4CC3C)c2)CC1 (stereo unspecified)	20	9	12	6.8

Rewritten bar-delimited: entries from further up
SMILES | Beta2AR agonist | rRNA inh HTS | rRNA inh HTS OD600 | rRNA inh HTS RFP
CCCCN1CC(COCc2ccccc2)Oc2ccccc2S1(=O)=O (stereo unspecified) | 1 | -4 | -12 | -3.0
CCOc1ccc(NC(=O)COc2ccc(N3CC(C(N)=O)CC3=O)cc2)cc1 (stereo unspecified) | 1 | -1 | 2 | 1.8
COc1ccc(C(CNC(=O)CCNC(=O)c2ccccc2Cl)N2CCCC2)cc1 (stereo unspecified) | 3 | 11 | 14 | 4.4
CN(C)CCCNC(=O)C[C@H]1C[C@H](C(=O)N2CCOCC2)[C@@]2(CCC3CCCC3)c3[nH]c4cc(CCC(=O)N(C)C)ccc4c3CCN2C1=O | -7 | 17 | 10 | 2.2
CCOc1ccccc1NC1=C(OC)C(=O)C(Nc2ccccc2OCC)=C(OC)C1=O | 3 | 1 | 4 | 4.8

Part of the list above, comma-delimited:
Structure,Beta2AR agonist,rRNA inh HTS,rRNA inh HTS OD600,rRNA inh HTS RFP
O=C1C=Cc2cccc3ccc(O)c1c23,18,-9,-66,2.3
CC1CCC(=NO)C(=NO)C1 (stereo unspecified),-2,6,7,1.6
O=C(COC(=O)/C=C/c1ccc([N+](=O)[O-])cc1)Nc1ccc2[nH]c(=O)[nH]c2c1,-6,9,4,-2.3

(further entries)
SMILES	Beta2AR agonist	rRNA inh HTS	rRNA inh HTS OD600	rRNA inh HTS RFP
COc1ccc(-c2nn(-c3ccccc3)cc2CNC[C@H]2O[C@@H](n3cnc(C(N)=O)n3)[C@H](O)[C@@H]2O)cc1	22	14	5	4.2
CC(=O)Nc1ccc(S(=O)(=O)NCCC(=O)OCC(=O)c2cccc(Br)c2)cc1	-3	1	-1	4.1
Cc1nn(C2CC(O)C(O)C(CO)O2)c(=O)[nH]c1=O (stereo unspecified)	8	20	16	3.6
Cc1sc2nc(SCC(=O)Nc3ccc(Cl)c(C(=O)O)c3)[nH]c(=O)c2c1C	1	-9	-9	3.3
O=C(OC(c1ccccc1)c1nccc2ccccc12)c1ccccc1 (stereo unspecified)	-2	3	-5	15
O=C(NCCc1ccccc1)c1cccc(NC(=O)C2CCC2)c1	-2	-16	-7	-3.9
O=C1NCN(C2CCCCC2)CN1	-8	4	11	-0.5
O=c1[nH]c(=S)[nH]cc1Oc1ccccc1	-5	15	2	3.0
Cc1ccccc1S(=O)(=O)N1C[C@H]2CON(C)[C@H]2C[C@H]1c1cccc(-c2ccccc2)c1	3	-16	-5	0.7
O=C(OCc1cc(=O)n2ccsc2n1)c1ccc(OC(F)F)cc1	5	10	10	1.4
C[C@H](CO)N1C[C@H](C)[C@@H](CN(C)S(=O)(=O)c2ccc(F)cc2)Oc2ccc(NC(=O)NC3CCCCC3)cc2C1=O	0	-8&-3	-2&2	-2.0&-2.1
CCN(CC)CCNC(=O)c1ccc(NC(=O)c2ccc(S(=O)(=O)N(C)c3ccccc3OC)cc2)cc1	10	-15	-4	1.5
COc1ccc(C=C2SC(=S)NC2=O)c(OC)c1OC	13	-17	-52	-12
NC1=NC(=O)C(c2ccccc2)(c2ccccc2)S1	1	-6	-6	-0.2
Cc1ccc(NC(=O)Cn2c(=O)cnc3ccccc32)cc1S(=O)(=O)N1CCCCC1	-5	-7	-14	0.7
CCN(CC)C(=O)[C@H]1CC(CC(=O)NCCCN(C)C)C(=O)N2CCc3c([nH]c4ccc(OC)cc34)[C@]12C (stereo partly specified)	-9	6	29	2.9
CCOc1ccc(C(=O)NCC(=O)Nc2ccc3c(c2)OCO3)cc1OCC	14	-3	4	-1.0
COC(=O)c1ccc(COC(=O)c2ccc(C)c(S(=O)(=O)N3CCCCC3)c2)cc1	5	3	3	-0.5
CCN1C(=O)[C@@H]2[C@@H](c3ccc(-c4cc(C(C)=O)cs4)cc3)N3CCC[C@@]3(C(=O)OC)[C@@H]2C1=O	-3	-4	-10	0.4
Cn1c(=O)c2[nH]c(CCNC(=O)c3ccccc3)nc2n(C)c1=O	-10	12	14	1.8
Cc1ccc(OCC(=O)Nc2ccc3c(c2)ncn3C)cc1	-3	0	9	0.2
Cc1ccnc(SCCn2c(N3CCC(C)CC3)nc3c2c(=O)[nH]c(=O)n3C)n1	-21	2	11	-2.8
CC12CCC3C(CCC4CC(O)CCC43C)C1CC(O)C2 (stereo unspecified)	8	-28*	-11*	-0.7*
Cc1ccccc1N1C(=O)c2cccc([N+](=O)[O-])c2C1=O	3	10	5	1.1
COc1ccc(CCN2C(=O)C=CC2=O)cc1OC	2	6	15	-6.0

Laid out differently: 5 of the compounds above.
Sequence of screens: Beta2AR agonist	rRNA inh HTS	rRNA inh HTS OD600	rRNA inh HTS RFP
- Cn1c(=O)c2[nH]c(CCNC(=O)c3ccccc3)nc2n(C)c1=O
→ -10	12	14	1.8
- Cc1ccc(OCC(=O)Nc2ccc3c(c2)ncn3C)cc1
→ -3	0	9	0.2
- Cc1ccnc(SCCn2c(N3CCC(C)CC3)nc3c2c(=O)[nH]c(=O)n3C)n1
→ -21	2	11	-2.8
- CC12CCC3C(CCC4CC(O)CCC43C)C1CC(O)C2 (stereo unspecified)
→ 8	-28*	-11*	-0.7*
- Cc1ccccc1N1C(=O)c2cccc([N+](=O)[O-])c2C1=O
→ 3	10	5	1.1

Further structures follow.
SMILES	Beta2AR agonist	rRNA inh HTS	rRNA inh HTS OD600	rRNA inh HTS RFP
CC(NC(C(=O)c1ccccc1)c1ccccc1)c1ccccc1 (stereo unspecified)	5	-6	-1	-0.3
Nc1cc2c(cc1Br)-c1ccccc1C2=NO	12	-64	-78	-22
CCOC(=O)C1=C(C)c2ccccc2OC1C(=O)OCC (stereo unspecified)	-5	-5	-9	-5.6
CC12C=CC(=O)C=C1CCC1C3CCC(O)(C(=O)CO)C3(C)CC(O)C12F (stereo unspecified)	-10	8	8	2.2
CC=Cc1cc(OC)c2c(c1)C(C)C(c1ccc(O)c(OC)c1)O2 (stereo unspecified)	2	-21	-59	-3.7
CCCC[C@@H]1C=C(C(=O)O)[C@H](c2ccc(Br)cc2)N1S(=O)(=O)c1ccc(C)cc1	4	-3	-21	-5.7
O=C(NOCc1ccccc1)OCc1ccccc1	2	-8	-15	-2.0
CCC1(CC)SCCNC1=O	2	7	11	0.4
COC(=O)c1ccc(NC(=O)CCCN2C(=O)NC(C)(C)C2=O)cc1	-4	0	3	-1.1
CC(=O)Nc1ccc2c(c1)C(=Nc1ccc(C)cc1)c1ccccc1-2	7	-22*	-10.0*	-1.8*
COC(=O)[C@H](C(C)C)N(Cc1ccccc1)S(=O)(=O)CCN1CCCC1	5	2	5	-1.6
C=CCn1c(C)nnc1SCC(=O)c1c(N)n(C2CC2)c(=O)[nH]c1=O	-5	-2	4	0.4
